Source: PubChem (National Center for Advancing Translational Sciences (NCATS))
TRPML1 ag: activates the human TRPML1 channel | Q9GZU1 | TRPML1-expressing cells, Ca2+ dye fluorescence, FDSS; host cell line not named in the record; reference of the full effect not given here | activation, % (no concentration beside the values) | hit rate 0.12% among 410,000; in the data active = activation above about 50%; inconclusive = about 30% to 50%; inactive = below about 30%; also: 0% is about no effect; the text of the record puts the active cut at 80%
Target sequence (Q9GZU1 whole entry, looked up): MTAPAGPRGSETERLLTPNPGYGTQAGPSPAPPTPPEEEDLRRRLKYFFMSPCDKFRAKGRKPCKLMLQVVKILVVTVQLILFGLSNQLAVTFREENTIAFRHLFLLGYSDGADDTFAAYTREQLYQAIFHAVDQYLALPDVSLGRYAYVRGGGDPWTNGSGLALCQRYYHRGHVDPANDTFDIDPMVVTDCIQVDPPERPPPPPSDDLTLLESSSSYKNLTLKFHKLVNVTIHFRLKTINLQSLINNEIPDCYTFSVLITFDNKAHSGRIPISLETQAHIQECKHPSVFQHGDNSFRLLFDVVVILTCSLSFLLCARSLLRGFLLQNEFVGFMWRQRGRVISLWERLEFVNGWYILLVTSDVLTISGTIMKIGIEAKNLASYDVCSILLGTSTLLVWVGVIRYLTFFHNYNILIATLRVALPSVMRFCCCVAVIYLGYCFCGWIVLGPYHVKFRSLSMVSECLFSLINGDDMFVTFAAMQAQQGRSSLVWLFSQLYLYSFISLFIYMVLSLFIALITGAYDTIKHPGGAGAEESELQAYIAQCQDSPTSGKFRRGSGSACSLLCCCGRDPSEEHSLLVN
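TRPML1-DL cells, Tet-induced overnight (~16 h, 37 degrees C), loaded 45-90 min at room temperature with Ca8 no-wash calcium dye plus quencher. FDSS fluorescence: 10 s baseline, compound pin-transfer, 110 s agonist read, then EC80 54-4 (4uM final) and 110 s antagonist read.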
TRPML1 blocker: blocks the human TRPML1 channel; Q9GZU1; TRPML1-inducible cells, Ca2+ dye fluorescence, FDSS; active compounds read low; inhibition of EC80 agonist-evoked calcium signal; activity change, negative = inhibition, % (concentration not given with the values); hit rate 0.02% among 390,000; in the data active means activity change below about -50%; inconclusive means about -30% to -50%; inactive means above about -30%;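 also: stimulus is agonist 54-4 at its EC80 concentration; % is scaled to controls: 0 for no effect and ±100 for the full control effect; the text of the record puts the active cut at -80%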
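Calcium fluorescence in TRPML1-DL cells induced overnight with Tet: a 110 s read after compound pin addition, then a 110 s antagonist read after challenge with 54-4 at 4 uM final (EC80).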
D2 PAM: human D2 receptor positive allosteric modulation; DiscoveRx D2 beta-arrestin cells, luminescence, 90 min; 100% = 57 uM dopamine signal; potentiation, % (no concentration beside the values); hit rate 0.23% among 360,000; active = potentiation of 50% or more; inconclusive = 30% to 50%; inactive = 30% or less;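 also: compound concentration not given in the record; tested on top of an EC20 dose of dopamine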
Target sequence (P14416 whole entry, looked up): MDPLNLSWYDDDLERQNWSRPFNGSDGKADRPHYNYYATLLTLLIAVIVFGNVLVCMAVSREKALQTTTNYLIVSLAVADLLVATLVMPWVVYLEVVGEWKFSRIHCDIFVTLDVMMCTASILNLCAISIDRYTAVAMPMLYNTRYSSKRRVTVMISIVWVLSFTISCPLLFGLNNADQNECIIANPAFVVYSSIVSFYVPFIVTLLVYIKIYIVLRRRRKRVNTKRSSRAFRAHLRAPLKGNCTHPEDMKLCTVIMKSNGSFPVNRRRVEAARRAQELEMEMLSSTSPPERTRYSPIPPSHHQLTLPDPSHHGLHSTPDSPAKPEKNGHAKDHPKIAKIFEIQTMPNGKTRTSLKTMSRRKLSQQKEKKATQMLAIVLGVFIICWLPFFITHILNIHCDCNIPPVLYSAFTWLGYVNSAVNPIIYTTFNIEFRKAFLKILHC
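PathHunter D2 cells, attached overnight at 37 deg C, received compound in DMSO plus dopamine at EC20 (50 nM final) for 90 min at 37 deg C. Beta-arrestin recruitment was read as luminescence after 1 h with detection reagent at ambient temperature.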
PINK1 expr mod: modulators of PINK1 expression; PINK1 immunofluorescence, high-content cytometry, 24 h; hit rate 0.2% among 410,000; AID 624263; Potency, µM (titrated, usually from 76.6 µM), without a hit: at the top dose activation (PINK1 increase), hits mostly activators; active = well fitted activation curve with a large enough effect; inconclusive = small, poorly fitted or top-dose-only effect; inactive = flat fitted curve, though single readings scatter; cell line not stated here;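 also: potency is read from the fitted curve at half-maximal effect; % of control where 0% means no effect; nearly all actives have a fitted effect of over 65% in size; a mitochondrial uncoupler was the plate control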
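Readout is PINK1 immunofluorescence, quantified alongside mitochondrial, cell and nuclear markers by laser-scanning microplate cytometry. Cells from a stable line were exposed to compound titrations (5 concentrations) for 24 hours, with CCCP controls.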
Six1-Eya2 blk: blocks human Six1 binding to Eya2; hit rate 0.56% among 360,000; AlphaScreen GST-Six1/His-Eya2 binding, biochemical; active compounds read low; control for the full effect not named in the record; Q15475+O00167; activity change, % (concentration not given with the values); in the data active = activity change below about -65%; inconclusive = about -30% to -65%; inactive = above about -30%; also: % is scaled to controls: 0 for no effect and ±100 for the full control effect
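Six1/Eya2 binding was read as AlphaScreen signal after compounds were pinned into GST-Six1 plus His-tagged Eya2 (5X stock 250/500 nM) in pH 8.0 Tris/NaCl/TCEP buffer, beads added, then incubated 1 h, 37 C, dark.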
D2 agonist: agonists of human D2 dopamine receptor (beta-arrestin). P14416. DiscoveRx PathHunter D2 beta-arrestin, luminescence, 90 min; 100% = 57 uM dopamine signal. activation, % (concentration not given with the values). hit rate 0.084% among 360,000. AID 624465; in the data active = activation above about 40%; inconclusive = about 15% to 40%; inactive = below about 15%; also: compound concentration not given in the record; the text of the record calls up to 30% inactive
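DiscoveRx PathHunter D2 beta-arrestin cells (2,100/well) attached overnight, then compound-stimulated 90 min at 37 C in HBSS/10 mM HEPES/0.1% Tween-20 buffer; beta-galactosidase complementation read by luminescence after 1 h at ambient temperature. Dopamine 57 uM final (EC100) as control.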
Starred values were filed as active, the others as inactive; u = inconclusive; x = not tested or not shown; & = joins results of further samples; [ ] = remark or other dose.

SMILES	TRPML1 ag	TRPML1 blocker	D2 PAM	PINK1 expr mod	Six1-Eya2 blk	D2 agonist
CC(C)C1S/C(=N/N=C/c2cccs2)NC1=O (stereo not given)	0.9	3	-11	2.2%	-14	0.0
CC(=O)c1[nH]c(C)c(C(=O)NCc2ccc(Cl)cc2)c1C	1.5	-10	x	1.3%	x	x
COc1cc(OC)c(C(=O)Nc2ccncc2)cc1OC	0.3	4	-5	0.9%	-13	-4.1
COc1cc(C(=O)NCC(=O)N2CCN(S(=O)(=O)c3cc(C)ccc3C)CC2)cc(OC)c1OC	1.8	38	2	2.2%	0	1.0
Oc1ccc(C[C@@H](CN2CCC[C@@H]2CN2C(=S)NC[C@@H]2Cc2ccccc2)N2C[C@H](Cc3ccccc3)N(CCc3ccccc3)C2=S)cc1	-0.4	-10	-11	0.9%	-7	-3.6
CC1CCCN(C(=O)c2nn(C)c3c2CS(=O)(=O)c2ccccc2-3)C1 (stereo not given)	0.1	12	-7	1.5%	0	-1.0
Cc1ccccc1C(=O)Nc1ccccc1N1CCCCC1	0.3	-10	6	u	25	1.0
N#Cc1nc(COc2ccc(-c3ccccc3)cc2)oc1NCc1cccnc1	0.4	65	19	1.3%	-17	5.9
COc1ccc(N2CCN(c3oc(/C=C/c4cccc(OC)c4)nc3C#N)CC2)cc1	1.8	-10	x	0.4%	x	x
CC(=O)Nc1cccc(-c2ccnc3c2CC(C)(C(=O)Nc2cccc(C(C)=O)c2)O3)c1 (stereo not given)	0.1	19	-4	10%	-7	3.2
CC1CC(Nc2ccccc2N)=CC(=O)O1 (stereo not given)	-0.5	2	9	0.5%	13	-4.9
CC(C)(C)SCCNC(=O)/C=C/c1ccc([N+](=O)[O-])cc1	0.0	48	6	0.5%	-13	3.3
Fc1ccccc1-n1cn[nH]c1=S	0.3	19	-6	1.5%	1	-7.3
CCC(C)n1c(SCC(=O)N(CC)c2c(N)n(Cc3ccccc3)c(=O)[nH]c2=O)nc2ccccc2c1=O (stereo not given)	0.9	-6	-3	5.0%	7	-4.1
CN1CCN(c2ccc(S(=O)(=O)N3CCCCC3)cc2NC(=O)COc2cccc(Cl)c2)CC1	0.6	-22	-18	1.1%	-15	-4.4
O=C(NC(c1ccc(-c2ccccc2)cc1)c1cnccn1)C1CCN(CCOc2ccc(Cl)cc2Cl)CC1 (stereo not given)	0.5	x	-14	-0.7%	-14	-3.7
CC(C)CNC(=S)NNC(=O)c1csc2c1CCC(C)C2 (stereo not given)	2.7	-19	-10	20%[38.3 µM]	0	1.5
O=C(CSc1nnc(-c2ccncc2)n1Cc1ccco1)Nc1ccccc1Cl	4.1	-14	-17	0.8%	7	1.6
Cc1cccc(C)c1N1CCc2cn[nH]c21	4.5	-2	-5	-1.8%	2	-1.9
Cc1onc(-c2ccccc2Cl)c1C(=O)N(Cc1nc(-c2ccccc2)no1)C1CCCCC1	2.3	67	-15	17%[38.3 µM]	-5	-2.3
CCO[C@H]1OC(C(=O)Nc2ccccc2)=C[C@@H](c2cn(C(C)=O)c3ccccc23)[C@@H]1CCCO	3.9	21	-10	-0.5%	-9	1.8
O=C(Cc1cn(Cc2cccc(Cl)c2)c2ccccc12)N1CCCC1	1.2	25	-11	1.3%	-12	-0.5
O=C(NC(=S)N1CCOCC1)C12CC3CCC(CC(C3)C1)C2	0.3	-22	4	1.5%	-7	-1.3
CCN1C[C@@H]2[C@@H]3C(=O)N(C)C(=O)[C@@H]3[C@](C)(C1=O)N2C(=O)c1ccc(Cl)cc1	-0.4	-4	-9	-1.8%	12	-2.5
CC(=O)Nc1ccc(NC(=O)CSc2ccc(-c3sc(C)nc3C)nn2)cc1	-0.3	3	-7	-0.7%	-18	-4.3
CCN(CC)C(=O)Cn1ncc2c1-c1ccccc1OC2	-0.3	-7	-6	-1.5%	-2	-4.5
COCc1cc(=O)[nH]c(-c2ccccc2)n1	0.7	6	1	-2.0%	1	-2.9
Cc1ccc(Cn2c(SCC(=O)NCc3ccccc3Cl)nc3ccsc3c2=O)cc1	1.9	-9	x	0.5%	x	x
CCOC(=O)c1ccc(Nc2nnc(C)c3ccccc23)cc1	2.1	6	-9	0.5%	-16	-4.9
CCOc1ccc(NS(=O)(=O)c2ccc(NC(=O)c3ccccn3)cc2)cc1	-0.3	5	1	1.0%	-7	-0.6
CCN(CC)S(=O)(=O)c1ccc2c(c1)N(CC(=O)NCc1ccccc1)C(=O)C1CCCCN21 (stereo not given)	3.9	57	x	1.1%	x	x
Cc1c(Cl)c([N+](=O)[O-])nn1CC(=O)NCC1CCCO1 (stereo not given)	-1.1	6	4	-0.3%	3	9.6
CC(=O)c1sc(NC(=O)C(C)C)nc1C	1.4	6	-21	-1.2%	0	-4.1
COc1ccc(OC)c2[nH]c(=O)c(CCNC(=O)Cc3cccs3)cc12	0.6	0	-9	-0.7%	-2	-4.4
COc1cc2nc(SCc3ccc(C(F)(F)F)cc3)n(Cc3cccs3)c(=N)c2cc1OC	-0.6	10	1	x	7	-2.4
COCCn1c(Cc2ccccc2)nnc1SC(C)C(=O)NC1CC1 (stereo not given)	4.5	-19	-1	0.3%	4	-1.7
COc1ccc(Cn2c(C(=O)O)c(CNC3CCCCC3)c3ccc(C)cc32)cc1	4.1	-5	x	2.1%	x	x
CCc1ccc(OCC(=O)N(CC)CC)cc1	-0.3	7	0	2.7%	8	0.1
COc1cc(C2=NOC(C(=O)Nc3c(C)n(C)n(-c4ccccc4)c3=O)C2)cc(OC)c1OC (stereo not given)	1.2	-12	-4	0.0%	7	-2.2
COc1ccc(C2N3CC4(C)CN2CC(c2ccccc2)(C3)C4=O)cc1OC (stereo not given)	-0.4	19	x	0.6%	x	x

A different layout for 2 compounds above:
Molecule,TRPML1 ag,TRPML1 blocker,D2 PAM,PINK1 expr mod,Six1-Eya2 blk,D2 agonist
Cc1cccc(C)c1N1CCc2cn[nH]c21,4.5,-2,-5,-1.8%,2,-1.9
Cc1onc(-c2ccccc2Cl)c1C(=O)N(Cc1nc(-c2ccccc2)no1)C1CCCCC1,2.3,67,-15,17%[38.3 µM],-5,-2.3

The list goes on:
SMILES	TRPML1 ag	TRPML1 blocker	D2 PAM	PINK1 expr mod	Six1-Eya2 blk	D2 agonist
COc1ccc(S(=O)(=O)c2c(C(=O)c3ccc(C)c(C)c3)cnc3ccc(F)cc23)cc1	1.0	-13	x	1.0%	x	x
Cc1ccccc1Nc1nnc(SCC(=O)c2c(N)n(C)c(=O)n(C)c2=O)s1	-0.3	3	-1	1.5%	u	-4.8
COc1ccc(CNC(=O)CN2C(=O)COc3ccc(S(=O)(=O)N4CCCCCC4)cc32)cc1	0.7	10	x	-0.8%	x	x
O=C(Nc1cccc(C(=O)N2CCOCC2)c1)c1ccccc1Br	0.8	-1	9	-0.3%	3	-0.6
Cc1cccc(N2CCN(C(=O)c3ccc4c(c3)N(Cc3ccccc3)C(=O)c3ccccc3S4(=O)=O)CC2C)c1 (stereo not given)	0.5	1	x	-0.5%	x	x
Cc1cc(C)nc(N(C#N)Cc2ccccc2)n1	2.0	7	-18	1.5%	-3	-2.2
Cc1[nH][nH]c(=O)c1C(c1ccc(N(C)C)c(Br)c1)c1c(C)[nH][nH]c1=O	-1.1	17	-1	0.8%	-25	0.7
O=C(O)CCNC1CCCCC1	-0.4	-1	-13	0.6%	3	-8.9
CC(NC(=O)Cn1nc(C(=O)O)c2ccccc2c1=O)C12CC3CC(CC(C3)C1)C2 (stereo not given)	0.5	-10	-2	5.0%	-6	-0.9
Cc1c(O)ccc2c(O)c(NC(=O)c3ccc4c(c3)CCC(C)(C)O4)c(=O)oc12	-0.4	19	-8	0.4%	1	-0.5
Cc1cc(NC(=O)CCC(=O)N(CC(=O)NCC2CCCO2)c2ccc(C(C)C)cc2)no1 (stereo not given)	-0.6	6	-13	2.7%	1	-3.8
C=CCNC(=S)NS(=O)(=O)c1cccs1	-0.1	0	-16	-0.9%	8	-9.0
COc1ccc(NC(=O)C2CCCN(S(=O)(=O)c3ccc4c(c3)CCCN4C(C)=O)C2)cc1 (stereo not given)	0.4&0.2	-10&5	-7	-0.6%&1.0%	-7	4.9
O=C(OCc1cc(=O)n2nc(-c3cccs3)sc2n1)c1cccc(F)c1	-0.5	-25	x	8.1%	x	x
CCOc1ccccc1CNC(=O)c1ccc2nc(N3CCC(C)CC3)sc2c1	-0.4	4	x	-0.7%	x	x
Oc1cc(OCc2ccccc2)ccc1-c1[nH]ncc1-c1ccccc1	2.4	1	1	-1.6%	-6	-2.1
O=S(=O)(c1ccc(Br)cc1)c1nc(-c2ccco2)oc1NCCCn1ccnc1	1.2	0	-4	-4.9%	u	-2.6
COc1ccc(OC)c(NS(=O)(=O)c2cc3c4c(c2)CCN4C(=O)CC3)c1	0.2	-5	1	0.0%	1	-7.3
CCNC(=O)C1CCCc2c1[nH]c1ccc(Cl)cc21 (stereo not given)	1.0	28	-4	2.1%	0	-0.8
N#Cc1ccc(OCC(=O)N(C2CCCCC2)C2CCS(=O)(=O)C2)cc1 (stereo not given)	-0.3	5	-3	0.1%	1	-3.2
O=C(OCC(=O)c1ccc(Cl)cc1Cl)c1ccc2c(c1)C(=O)N(c1cccc3ncccc13)C2=O	-0.1	-12	-3	1.2%	-3	-2.9
CCCS(=O)(=O)N1CCC(C(=O)NC2CCCC(C)C2C)CC1 (stereo not given)	-0.6	-6	4	-1.0%	3	-1.4
CC(C)CSC1=NSC2=NC(=O)/C(=C\c3ccccc3)C(=N)N12	-0.2	15	-6	25%	-16	-3.4
Cc1nc2ccccc2nc1OCc1ccccc1	4.2	-10	-5	7.4%	27	0.9
CC(C)n1c(SCc2cc(=O)[nH]c3ccccc23)nc2c1c(=O)n(C)c(=O)n2C	0.4	-10	-7	-5.8%[38.3 µM]	4	0.7
CC(=O)Oc1ccc2cc(-c3cccnc3)c(=O)oc2c1	0.2	-6	0	2.0%	-3	4.3
CCOC(=O)c1sc2ccccc2c1S(=O)(=O)Nc1ccc(C(C)=O)cc1	1.1	-10	x	1.3%	x	x
COc1ccc(-c2cnc3c(NC(C)=O)cc(-c4cc(F)ccc4OC)cn23)cc1OC	2.8	x	2	9.0%	6	1.8
O=C1CC(N2CCC(c3nc4ccccc4o3)CC2)C(=O)N1c1cc(Cl)cc(Cl)c1 (stereo not given)	0.9	-9	-14	0.4%	-3	0.3
Cc1ccccc1OCC(=O)Nc1cccc2nsnc12	0.1	0	-2	2.3%	7	-2.9
Cc1cc(=O)n2nc(N3CCCC(C(=O)NCc4ccccc4)C3)sc2n1 (stereo not given)	-0.3	-2	2	2.8%	-6	0.9
CCOc1ccccc1N(CC(=O)O)S(=O)(=O)c1ccccc1	1.0	13	2	0.4%	9	-2.8

An excerpt of these results, bar-delimited.
molecule | TRPML1 ag | TRPML1 blocker | D2 PAM | PINK1 expr mod | Six1-Eya2 blk | D2 agonist
CCOC(=O)c1sc2ccccc2c1S(=O)(=O)Nc1ccc(C(C)=O)cc1 | 1.1 | -10 | x | 1.3% | x | x
CC(C)n1c(SCc2cc(=O)[nH]c3ccccc23)nc2c1c(=O)n(C)c(=O)n2C | 0.4 | -10 | -7 | -5.8%[38.3 µM] | 4 | 0.7

Compounds were not picked by outcome (roughly 1% active in at least one column).
